High-throughput results (PubChem BioAssay)
VDR inh = blocks the human vitamin D receptor. VDR-SRC2-3 peptide fluorescence polarization, 2 h. P11473. Potency, µM, without a hit: max response, negative = inhibition, most hits filed as inhibitors. 400,000 compounds, 0.93% hits. AID 504847; active = well fitted inhibition curve with a large enough effect; inconclusive = small, poorly fitted or top-dose-only effect, or another doubt; inactive = no such curve, though single readings can be large or run the other way; also: series mostly up to about 120 µM
Target sequence (P11473 whole entry, looked up): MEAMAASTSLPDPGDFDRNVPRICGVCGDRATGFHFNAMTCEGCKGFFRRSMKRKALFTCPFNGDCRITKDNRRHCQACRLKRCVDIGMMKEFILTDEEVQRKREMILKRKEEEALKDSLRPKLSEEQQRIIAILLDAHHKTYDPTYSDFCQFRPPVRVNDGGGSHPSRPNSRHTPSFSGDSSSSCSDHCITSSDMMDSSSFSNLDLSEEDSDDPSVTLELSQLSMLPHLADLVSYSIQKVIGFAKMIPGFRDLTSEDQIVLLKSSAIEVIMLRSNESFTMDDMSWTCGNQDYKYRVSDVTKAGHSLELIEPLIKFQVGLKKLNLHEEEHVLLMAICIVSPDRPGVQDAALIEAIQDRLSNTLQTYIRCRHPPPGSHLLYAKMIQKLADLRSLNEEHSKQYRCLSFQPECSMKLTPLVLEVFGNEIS
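FP read-out; VDR + SRC2-3 coactivator peptide; 23 nl compound by pintool; 2 h RT incubation; reagents held at 4 deg C, protected from light.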
Numbers without * were called inactive; & = joins results of further samples; [ ] = remark or other dose. % is scaled to controls: 0 for no effect and ±100 for the full control effect; potency is read from the fitted curve at half-maximal effect. Not all compounds are listed. The share of hits here may be higher or lower than overall.

Screening CCOC(=O)c1cccc(NC(=O)CCn2nnc3ccccc32)c1 returned VDR inh 32%[activator].
CCOC(=O)C(=O)Nc1nc(-c2ccc3c(c2)CCN3C(=O)C2CC2)c(C)s1 was read as VDR inh 2%.
Screening COc1ccc(Cl)c2sc(N(CCN(C)C)C(=O)C3=COCCO3)nc12 returned VDR inh -19%.
Screening COc1cc(O)c2c(c1)OC(c1ccc(O)cc1)CC2=O (stereo not given) returned VDR inh 50µM*.
For Cc1onc(-c2ccccc2Cl)c1C(=O)NC(=S)NCc1cccnc1 the results were VDR inh -17%.
For COc1cc(S(=O)(=O)NC2CCCC2)c(OC)cc1Cl the results were VDR inh 9%.
Screening COc1ccccc1N1CCN(C(=O)c2ccc3nc(-c4ccco4)c(-c4ccco4)nc3c2)CC1 returned VDR inh 2%.
For O=c1/c(=C/c2ccc(O)cc2)sc2n1CCCN=2 the results were VDR inh 11%.
`CCC(=O)N1CCN(c2ccc(Cl)cc2NC(=O)c2ccc(Br)o2)CC1` gave VDR inh -8%.
`CCOc1cc(C(=O)NC(CC(=O)O)c2ccc(OC3CCCC3)cc2)cc(OCC)c1OCC` (stereo not given) gave VDR inh 2%.
`COc1cc(NC(=S)NC2CC(C)(C)NC(C)(C)C2)cc(OC)c1` gave VDR inh -21%.
Screening Nc1ccc(Sc2nnnn2-c2ccccc2)c(Cl)c1 returned VDR inh 13%.
O=C(CNC(=O)c1ccccc1F)NCc1ccncc1 was read as VDR inh 6%.
O=C(Cn1c(-c2cccs2)cc2ccccc21)NCc1ccccc1Br was read as VDR inh 9%.
O=C1NC(=S)SC1=Cc1ccc2c(c1)OCO2 was read as VDR inh -1%.
For CCc1cc(=O)oc2c3c(cc(OCC(=O)NCCCCCC(=O)O)c12)OC(C)(C)CC3 the results were VDR inh -24%.
Screening O=C(CCn1c(=O)oc2cc(Cl)ccc21)Nc1ccc(O)cc1 returned VDR inh -1%.
`CN1CCc2c(sc(/N=C/c3cc(Cl)ccc3O)c2C#N)C1` gave VDR inh 7%.
`COc1ccc(C2C(C(N)=O)=C(C)Nc3nc(-c4ccccc4Cl)nn32)cc1` (stereo not given) gave VDR inh -4%.
Screening COc1ccc(C(=S)N2CCOCC2)cc1OC(=O)c1ccc(C)cc1 returned VDR inh 7%.
Screening COc1cc(Cl)c(C)cc1NC(=O)c1cc(CN2CCOCC2)on1 returned VDR inh 6%.
`O=C(NC1CCCC1)C1C2C=CC(C2)C1C(=O)N1CCOCC1` (stereo not given) gave VDR inh 6%.
Screening CCc1ccccc1S(=O)(=O)Cc1ccc(C(=O)NCCc2ccccc2)o1 returned VDR inh inconclusive.
CCCC(=O)OCC(=O)Nc1ccc2c(c1)OCO2 was read as VDR inh -9%.
For Cc1ccc(-c2nc3c4ccccc4n(Cc4cccc(Cl)c4)c(=O)n3n2)cc1 the results were VDR inh 1%.
COc1cc(CCC(=O)NCc2ccc3c(c2)CCN3C(=O)c2ccccc2)cc(OC)c1OC was read as VDR inh 8%.
O=C(/C=C/c1ccccc1)Nc1cc(-c2nc3cc(Cl)ccc3o2)ccc1Cl was read as VDR inh 16%.
Screening COc1cc(Cl)cc(C#N)c1OCC(=O)O returned VDR inh 2%.
Screening COc1ccccc1CNc1ccc(-c2nc(-c3ccccc3C)no2)cc1[N+](=O)[O-] returned VDR inh 20%.
CCN(CC)c1ccc(/C=N/Nc2nc3ccccc3[nH]2)cc1 was read as VDR inh 7%.
Screening Cc1cc(C(=O)NCC(=O)OC(C(=O)Nc2cc(C(F)(F)F)ccc2Cl)c2ccccc2)ccc1[N+](=O)[O-] (stereo not given) returned VDR inh 0%.
Screening CC(C)C(=O)Nc1nnc(Cc2c[nH]c3ccccc23)s1 returned VDR inh -11%.
`COCc1nnc(NC(=O)CCCCCN2C(=O)c3ccccc3C2=O)s1` gave VDR inh 11%.
`Cc1ccc2c(c1)cc(CN(Cc1ccc3c(c1)OCO3)S(=O)(=O)c1ccccc1)c1nnnn12` gave VDR inh 4%.
Screening Oc1ccc(-c2csc(Nc3ncccn3)n2)c(O)c1 returned VDR inh -2%.
COc1ccc(Cc2nnc(-c3cccc(C)c3)o2)cc1OC was read as VDR inh 8%.
For Cc1ccc(CN2CCCN(Cc3c(F)cccc3Cl)S2(=O)=O)cc1 the results were VDR inh 11%.
Cc1oc(-c2cc(F)ccc2F)nc1CN1CCN(C)C(=O)[C@@H]1C was read as VDR inh 9%.
`Cc1csc2nc(COc3ccccc3NC(=O)c3ccc(C(C)(C)C)cc3)cc(=O)n12` gave VDR inh -6%.
COc1ccc(C(=S)N2CCOCC2)cc1OS(=O)(=O)c1ccc(Br)cc1 was read as VDR inh 6%.
For COc1ccc(CCNc2nncc(=O)[nH]2)cc1OC the results were VDR inh -5%.
For CN(Cc1ccccc1)C(=O)c1ccc(NC(=O)Cc2ccc(NC(=O)C3CCCN(C(=O)C4CCCCC4)C3)cc2)cc1 (stereo not given) the results were VDR inh -5%.
Screening CCC(C)NC(=O)CSc1nc2cc3c(cc2c(=O)n1CCCCCC(=O)NCc1ccc2c(c1)OCO2)OCO3 (stereo not given) returned VDR inh 18%.
`COc1cc2ccccc2cc1C(=O)N1CCN(C(C)=O)CC1` gave VDR inh -1%.
`COC(=O)c1c(CCl)noc1C(=O)NC(C)C` gave VDR inh -6%.
Screening Cc1csc(NC(=O)Cn2cnnn2)n1 returned VDR inh -9%.
Cc1ccc(N2C(=O)C3C=NNC3C2=O)cc1 (stereo not given) was read as VDR inh -4%.
For C=CC[C@@H](Cc1ccc(F)cc1)C(=O)OC[C@@H]1CCCN1C(=O)[C@@H](CC=C)CC(=O)NCCO the results were VDR inh -18%.
For O=C(NC1CCCCCC1)C1CCN(C(=O)c2cccc(Cl)c2)CC1 the results were VDR inh 19%.
Screening c1ccc(CNc2ncnc3ccc(-c4ccc5c(c4)OCO5)cc23)cc1 returned VDR inh -21%.
Screening COc1ccccc1N1C(=O)c2ccccc2NC1c1ccncc1 (stereo not given) returned VDR inh -13%.
CC1=C(C(=O)Nc2ccccc2)C(c2ccc(O)cc2)N2C(=O)CSC2=N1 (stereo not given) was read as VDR inh 2%.
For Cc1ccccc1C(=O)Nc1cccc(NC(=O)c2ccccc2[N+](=O)[O-])c1 the results were VDR inh 5%.
For O=C(NCc1ccc(Cl)cc1)C1CCCN(c2nc3ccccc3n3cccc23)C1 (stereo not given) the results were VDR inh -15%.
`CCOC(=O)NC(=O)/C(C#N)=C\NNc1ncc(C(F)(F)F)cc1Cl` gave VDR inh 1%.
For C/C(=N\Nc1nc(C(C)(C)C)cs1)c1ccccc1 the results were VDR inh -13%.
For COc1cc(OC)c(NC(=S)Nc2cccc(C)c2)cc1Cl the results were VDR inh -12%.
For Cc1ccc(NC(=S)Nc2ccc3cn[nH]c3c2)cc1 the results were VDR inh -27%.
For Cn1nnnc1SCC(=O)c1c(N)n(C2CC2)c(=O)[nH]c1=O the results were VDR inh -2%.
Screening O=C(c1cc(COc2ccc(F)cc2Cl)on1)N1CCC(OCc2cccnc2)CC1 returned VDR inh 9%.
`Cc1cc(C)cc(NC(=O)C(OC(=O)C2=COCCO2)c2ccccc2)c1` (stereo not given) gave VDR inh 6%.
O=C(CCCCl)Oc1ccc2cc(-c3ccc4ccccc4n3)c(=O)oc2c1 was read as VDR inh -16%.
Screening CCN1CCN(c2ccc(NC(=O)c3cccc(OCc4ccccc4)c3)cc2)CC1 returned VDR inh 10%.
Screening N#Cc1cccc(OC(=O)c2ccc3c(=O)n4c(nc3c2)CCC4)c1 returned VDR inh inconclusive.
`O=C(C1CC(=O)N(C2CCCC2)C1)N1CCN(c2cccc(Cl)c2)CC1` (stereo not given) gave VDR inh -9%.
For O=C(CN1C(=O)/C(=C/c2ccco2)SC1=S)Nc1ccc(O)c(C(=O)O)c1 the results were VDR inh -6%.
`COc1ccccc1/C=N/NC(=O)c1ccc(N(C)S(=O)(=O)c2ccccc2)cc1` gave VDR inh 14%.
`CC(C)[C@H](NC(=O)OC(C)(C)C)c1nnc(SCc2cccc(F)c2)o1` gave VDR inh 8%.
`Cc1ccc2cc(CN(c3ccccc3C)S(=O)(=O)c3ccccc3)c(=O)[nH]c2c1` gave VDR inh inconclusive.
`CN(CCc1ccccn1)C(=O)CN(C)S(=O)(=O)c1ccc2c(c1)c(=O)n(C)c(=O)n2C` gave VDR inh 9%.
For c1ccc(Cn2c(SCCN3CCOCC3)nnc2-c2cccnc2)cc1 the results were VDR inh -13%.
`CCOC(=O)CCSc1nc(N2CCOCC2)c2c(c1C#N)CC(C)(C)OC2` gave VDR inh -8%.
Screening Cc1ccc(NC(=O)Cn2cnc3cc([N+](=O)[O-])ccc3c2=O)cc1 returned VDR inh 2%.
O=C(Nc1ccc2nc(-c3ccco3)c(-c3ccco3)nc2c1)N1CCCC1 was read as VDR inh 71µM*.
Cc1ccc(-n2c(C)cc(=O)cc2C)cc1[N+](=O)[O-] was read as VDR inh -4%.
`c1ccc(N2CCN(c3c4c(nc5ncnn35)CCC4)CC2)cc1` gave VDR inh 5%.
`CCN(CC)c1ccc2nc3c4ccccc4c(=O)cc-3oc2c1` gave VDR inh inconclusive.
`Cc1cccc(CC(=O)NCCc2csc(-c3ccc(C(F)(F)F)cc3)n2)c1` gave VDR inh 14%.
Screening CCc1nnc(NC(=O)CSc2nnc(-c3ccccc3O)n2-c2ccc(C)cc2)s1 returned VDR inh -7%.
For CCCCNC(=O)C(CC)Sc1nnc(-c2cccc(F)c2)c(-c2cccc(F)c2)n1 (stereo not given) the results were VDR inh 8%.
For CCN(CC)CCCNC(=O)Cn1ncn2cccc2c1=O the results were VDR inh -6%.
Screening COc1ccc(OC)c(NC(=O)CCC(=O)N(Cc2ccc(OC)c(OC)c2)c2nccs2)c1 returned VDR inh 3%.
`O=c1[nH]c(NC2CCCCC2)c([N+](=O)[O-])c(=O)[nH]1` gave VDR inh -5%.
Screening COc1ccc(NC(=O)CN2CCN(CC(=O)Nc3ccccc3Cl)CC2)c(OC)c1 returned VDR inh -1%.
`Cc1ccc(CNC(=O)c2ccccc2SCC(=O)NCC2CCCCC2)cc1` gave VDR inh -13%.
`C/C(=N\NC(=O)c1ccc(N)cc1)C1CC1` gave VDR inh -5%.
For CCC(=O)Nc1ccc(CC)cc1-c1nc2ccccc2n(Cc2ccccc2)c1=O the results were VDR inh 9%.
CN1CCN(C(=O)c2cc(-c3cccc(Cl)c3)on2)CC1 was read as VDR inh -22%.
For Cc1c(C(=O)N2CCN(c3ccccc3F)CC2)sc2ncn(CC(=O)N3CCOCC3)c(=O)c12 the results were VDR inh 10%.
For CCN(C[C@H]1N[C@@](CC)(C(=O)OC)[C@H]2C(=O)N(C)C(=O)[C@@H]12)C(=O)COc1ccccc1 the results were VDR inh -5%.
Screening CN(C)S(=O)(=O)c1ccc(N2CCCC2)c(C(=O)NNC(=O)COc2ccccc2F)c1 returned VDR inh -8%.
For CCc1nnc(NS(=O)(=O)c2ccc(NC(=O)c3cccc([N+](=O)[O-])c3)cc2)s1 the results were VDR inh -6%.
O=C(CCn1cccc1)NCc1ccc2c(c1)OCO2 was read as VDR inh -6%.
For COC(=O)C/C=C/[C@@H](C)[C@@H](Cc1ccccc1Br)OC the results were VDR inh -26%.
O=[n+]1cc(-c2ccccc2)n([O-])c2c1CCCCC2 was read as VDR inh 19%.
`COc1ccccc1C(=O)Oc1c(Sc2ccccc2)c(C)nn1-c1ccccc1` gave VDR inh -30%.
For O=C(NCCC1=CCCCC1)C(=O)NCC1OCCCN1S(=O)(=O)c1ccc(F)cc1 (stereo not given) the results were VDR inh 6%.
CCCCCCCCCCCCCCCC(=O)OCC(O)C1OC(=O)C(O)=C1O (stereo not given) was read as VDR inh 5µM*.
COc1ccccc1NC1=C(C)C(=O)CC1 was read as VDR inh 2%.
CCOC(=O)N1CCN(C(=O)c2cc3n(n2)C(C(F)(F)F)CC(c2ccc4c(c2)OCO4)N3)CC1 (stereo not given) was read as VDR inh 0%.
O=C(Nc1ccc2ccccc2c1)[C@@H]1C[C@H]1[C@@H](NP(=O)(c1ccccc1)c1ccccc1)c1ccccc1 was read as VDR inh -1%.
Screening CCC(=O)Oc1ccc2c(C)cc(=O)oc2c1C returned VDR inh -1%.
`Cc1oc(-c2ccccc2Cl)nc1CS(=O)CC(=O)NCc1ccccc1Cl` (stereo not given) gave VDR inh -2%&-20%.
`Cc1cc2c(c(=O)n1C)C(C(C)C)C(C#N)=C(N)O2` (stereo not given) gave VDR inh 14%.
Cc1cccc(C(=O)OCC(=O)N(C)CC(=O)Nc2ccc(Cl)c(C(F)(F)F)c2)c1 was read as VDR inh -8%.
